# High-throughput results from PubChem.
# RanGTP-Impb inh – inhibitors of RanGTP-importin-beta interaction, primary screen, biochemical, FRET, CFP-Ran, YFP-importin-beta, homogeneous; cell-free CFP-Ran/YFP-importin-beta FRET ratio; inhibition, % (concentration not given with the values); hit rate 1.1% among 300,000; AID 2216;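 active = most replicates above 15%; inconclusive = exactly half above 15%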;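 note: 0% = DMSO wells and 100% = Ran loaded with GDP instead of GTP; wells of about 40 µL received 100 nL stock; the first replicate is given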
# Ecoli rRNA inh – selective bacterial rRNA inhibition in E. coli. hit rate 1.6% among 350,000. E. coli WT GFP vs humanized-ribosome RFP mutants, fluorescence, 24 h; active compounds read low; DMSO median 0, no signal -100. AID 720706. GFP signal change (wild-type ribosome), % (no concentration beside the values);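 active = significant combined selectivity score with lowered wild-type GFP, culture density cut under 30%, mutant RFP and density less affected; inactive = any of these conditions unmet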; note: one replicate is shown; some compounds called inactive have numbers as strong as hits
# Calb FLC – affects C. albicans growth with fluconazole; C. albicans CaCi-2 (fluconazole-resistant clinical isolate) + fluconazole, Alamar Blue growth, 48 h; growth inhibition, % (test concentration not listed); AID 1979; hit rate 0.57% among 300,000;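 active = most replicates above 75%; inconclusive = exactly half above 75%; inactive = most below 75%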;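 note: all wells also contain fluconazole at 8 µg/ml as a sub-toxic cotreatment; 0% = median of DMSO wells and 100% = median of geldanamycin control wells; wells of about 8 µL received 7.5 nL stock; the first replicate is given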
# FGF22 binding – FGF22 (human) thermal shift binding. recombinant FGF22 thermal shift, SYPRO orange fluorescence; percent of sucrose octasulfate shift, DMSO zero. hit rate 1.5% among 340,000. calls only at 9.99 µM. Q9HCT0. AID 651658;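 active = melting point raised past a set limit in the mean and every replicate; inconclusive = no clear call; three in four hits are not shown here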
# Target sequence (Q9HCT0 whole entry, looked up): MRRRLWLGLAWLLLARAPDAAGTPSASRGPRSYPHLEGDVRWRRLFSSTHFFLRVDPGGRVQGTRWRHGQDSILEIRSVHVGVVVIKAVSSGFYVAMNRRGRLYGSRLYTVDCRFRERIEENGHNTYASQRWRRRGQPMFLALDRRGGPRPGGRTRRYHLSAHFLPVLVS
# Beta apoptosis – blocks beta cell apoptosis; INS-1E cytokine-induced death, ATP luminescence, 48 h; percent of positive-control rescue, neutral wells zero; AID 435005; protection from apoptosis, % (concentration not given with the values); hit rate 0.8% among 300,000;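 active = all replicates at 75% or more, or half of them and the mean; inconclusive = half reach 75% but not the mean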;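 note: 0% = cytokine-treated negative control wells and 100% = positive control rescue; higher means more ATP so stronger rescue from cytokine killing; wells of about 40 µL received 100 nL stock; the first replicate is given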
# ALR inh – inhibitors of human sulfhydryl oxidase ALR; P55789; purified ALR, DTT oxidation, H2O2 HRP-luminol luminescence; inhibition, % (no concentration beside the values); hit rate 3.8% among 290,000; AID 485317;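 active = mean and each replicate at 75% or more; inconclusive = only one of the two met; inactive = neither met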;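 note: stock transfer was 7.5 nL into about 7.5 µL; 0% = neutral wells and 100% = wells with inactivated enzyme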
# Target sequence (P55789 whole entry, looked up): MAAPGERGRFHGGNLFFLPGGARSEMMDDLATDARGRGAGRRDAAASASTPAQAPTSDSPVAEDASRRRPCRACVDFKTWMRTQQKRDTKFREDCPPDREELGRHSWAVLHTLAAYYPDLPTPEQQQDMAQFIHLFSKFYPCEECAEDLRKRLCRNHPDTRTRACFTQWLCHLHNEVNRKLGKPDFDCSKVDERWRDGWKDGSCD
# AF4-AF9 inh – blocks AF4 peptide binding to human AF9. AlphaScreen, biotin-AF4 peptide binding to FLAG-AF9. AID 651704. P42568. hit rate 0.47% among 350,000. inhibition, % at 10 µM;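 active = every replicate reaching a set inhibition limit, whatever the replicate mean, cut at about 25% in these data; inconclusive = mean inhibition reaches that limit but some replicates miss it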;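 note: 0% = plate neutral control median and 100% = total signal loss; the record names both 10 and 1 µM as test concentration; the first replicate is given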
# Target sequence (P42568 whole entry, looked up): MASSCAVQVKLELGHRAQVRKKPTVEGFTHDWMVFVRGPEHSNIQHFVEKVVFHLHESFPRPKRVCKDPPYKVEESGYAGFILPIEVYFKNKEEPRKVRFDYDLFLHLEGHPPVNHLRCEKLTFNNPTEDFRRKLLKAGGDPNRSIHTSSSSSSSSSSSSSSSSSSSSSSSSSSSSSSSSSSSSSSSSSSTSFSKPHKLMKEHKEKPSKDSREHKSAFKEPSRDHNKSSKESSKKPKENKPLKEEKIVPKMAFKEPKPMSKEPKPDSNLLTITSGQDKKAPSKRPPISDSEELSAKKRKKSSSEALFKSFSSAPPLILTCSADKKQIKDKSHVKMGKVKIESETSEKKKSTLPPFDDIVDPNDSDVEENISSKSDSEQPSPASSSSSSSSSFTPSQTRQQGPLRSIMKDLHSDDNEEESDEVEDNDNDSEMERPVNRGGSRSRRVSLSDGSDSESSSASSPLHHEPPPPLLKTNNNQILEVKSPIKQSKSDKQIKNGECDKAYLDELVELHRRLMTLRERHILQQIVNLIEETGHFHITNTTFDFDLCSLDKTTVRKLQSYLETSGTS
# T cruzi repl – T. cruzi replication inhibition; T. cruzi beta-gal in NIH3T3, luminescence, 90 h; inhibition, % (test concentration not listed); hit rate 1.4% among 300,000; AID 1885;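 active = mean inhibition across valid replicates above about 55%, limit read from the data; inconclusive = mean below that limit but half or more replicates reach it; inactive = mean below it, under half of replicates reach it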;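 note: signal also drops with host cell toxicity which is not excluded here; 0% = plate median of DMSO wells and 100% = zero luminescence signal; higher percent means less beta-gal luminescence so fewer parasites; stock transfer was 50 nL into about 50 µL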
# Ecoli rRNA inh OD600 – further read-out of Ecoli rRNA inh, marked with its call; OD600 change, %; measured here: OD600 growth;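 optical density of the mix in the first replicate; 0 = DMSO median and -100 = no signal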
# Ecoli rRNA inh RFP – also measured in Ecoli rRNA inh; calls as there; RFP signal change, %; measured here: RFP humanized mutant strains;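 first replicate; 0 = DMSO median and -100 = no signal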
# * hit, by the source's call; i = inactive; ? = inconclusive; nt = no result given.
molecule	FGF22 binding	Ecoli rRNA inh OD600	Calb FLC	ALR inh	T cruzi repl	RanGTP-Impb inh	Ecoli rRNA inh	Ecoli rRNA inh RFP	Beta apoptosis	AF4-AF9 inh
CCOC(=O)[C@H]1[C@H]2COc3ccccc3[C@@H]2N2C(=O)CNC(=O)[C@@]12C	i	7	nt	-4	nt	nt	8	-1.0	-2	0.0
COc1ccc(C[C@H]2CN3C(=NC[C@@H]3Cc3ccc(O)cc3)N2C[C@H](C)NC(=O)CCC2CCCCC2)cc1	i	-66	-2	nt	5	0.2	-41	7.7	-1	14
Cc1ccc(N(C(=O)c2snc(C(N)=O)c2N)C(C(=O)NC2CCCC2)c2ccc(C)o2)cc1 (stereo not drawn)	i	1	25	1	24	3.4	2	-0.9	2	-0.8
CCOc1ccc(N(CC(=O)Nc2ccc(Br)cc2)S(C)(=O)=O)cc1	i	5	-2	-3	6	1.3	-2	-5.2	3	1.1
CCOc1ncccc1C(=O)N1CCN(c2ccc(C(F)(F)F)cn2)CC1	i	-22	-4	-1	-4	2.0	-6	-4.1	0	-2.6
CCCCc1nnc(NC(=O)CCSc2ccccc2)s1	nt	nt	0	-6	-16	?	nt	nt	-5	nt
Cc1cccc(OC(C)C(=O)N(Cc2cccs2)C2CCS(=O)(=O)C2)c1C (stereo not drawn)	nt	nt	1	-22	-4	-1.1	nt	nt	-10	nt
CCOc1ccc(/C=N/NC(=O)c2cccc3ccccc23)c(OCC)c1	i	13	3	-10	-2	0.2	12	-1.5	-7	-1.7
O=C(NCCC(=O)N1CCN(c2ccccc2F)CC1)c1ccco1	i	9	-2	0	-6	?	4	0.0	2	-4.6
Cc1nn(-c2ncc(C(F)(F)F)cc2Cl)c(=O)n1-c1ccccc1F	i	17	-2	-2	-4	-1.2	7	-0.1	-10	-2.2
CCOC(=O)C1CCCN(C(=O)c2ccc3oc(Cc4ccccc4)nc3c2)C1 (stereo not drawn)	i	3	2	8	-6	0.6	-1	-2.2	nt	0.2
CC(=O)Nc1nc(C)cs1	i	9	9	0	2	-0.7	19	-0.2	1	-6.0

# 2 of these compounds, reformatted:
> CCOC(=O)[C@H]1[C@H]2COc3ccccc3[C@@H]2N2C(=O)CNC(=O)[C@@]12C
  FGF22 binding = i | Ecoli rRNA inh OD600 = 7 | Calb FLC = nt | ALR inh = -4 | T cruzi repl = nt | RanGTP-Impb inh = nt | Ecoli rRNA inh = 8 | Ecoli rRNA inh RFP = -1.0 | Beta apoptosis = -2 | AF4-AF9 inh = 0.0
> Cc1nn(-c2ncc(C(F)(F)F)cc2Cl)c(=O)n1-c1ccccc1F
  FGF22 binding = i | Ecoli rRNA inh OD600 = 17 | Calb FLC = -2 | ALR inh = -2 | T cruzi repl = -4 | RanGTP-Impb inh = -1.2 | Ecoli rRNA inh = 7 | Ecoli rRNA inh RFP = -0.1 | Beta apoptosis = -10 | AF4-AF9 inh = -2.2

# The list continues.
molecule	FGF22 binding	Ecoli rRNA inh OD600	Calb FLC	ALR inh	T cruzi repl	RanGTP-Impb inh	Ecoli rRNA inh	Ecoli rRNA inh RFP	Beta apoptosis	AF4-AF9 inh
COc1ccc(O)c(/C=N/c2sc(C)c(C)c2C#N)c1	nt	nt	-10	8	-2	-6.4	nt	nt	-2	nt
O=C(Nc1cc(S(=O)(=O)N2CCOCC2)ccc1N1CCOCC1)c1cccs1	i	-1	nt	2	nt	nt	1	0.4	-6	-1.8
COc1ccc2c(c1)OC[C@H]1[C@H]2N2C(=O)[C@H](C)NC(=O)[C@@]2(C)[C@H]1c1ccccc1	i	4	nt	2	nt	nt	-2	-5.5	-1	4.0
O=[N+]([O-])c1ccc(OCc2n[nH]c(=S)n2-c2ccccc2)cc1	i	-15	41	66	-4	-1.2	-2	-0.5	3	-7.2
CCn1c(SCC(=O)N2CCN(c3ccccc3F)CC2)nnc1-c1ccoc1C	nt	nt	12	5	-8	-4.0	nt	nt	6	nt
Cc1ccc2nc(N3C(=O)C(O)=C(C(=O)c4ccc(C)o4)C3c3cccc(O)c3)sc2c1 (stereo not drawn)	i	-45	65	nt	-16	?	-34	11	4	-0.6
Cc1cccc(-c2cc3nc(C)cc(NCCCn4ccnc4)n3n2)c1	nt	nt	6	-23	29	-2.0	nt	nt	5	nt
CCOC(=O)c1cnc(-c2ccccc2)nc1Oc1ccc(OC)cc1	i	3	-18	-11	16	2.5	7	-8.6	1	-2.1
O=C(Cc1cccc(C(F)(F)F)c1)NCc1cccnc1	i	3	1	5	-9	-3.7	4	1.4	-2	-4.1
COc1ccccc1NC(=O)CSc1nnc(CCNC(=O)c2ccc(C)cc2)n1C	i	9	-17	-22	-3	nt	8	-0.4	-5	-1.5
CCc1nnc(NC(=O)CSc2nnc(-c3ccco3)n2CC)s1	nt	nt	-12	-3	6	-1.8	nt	nt	0	nt
CCN(CC)C(=O)c1sc(NC(=O)c2c(OC)cccc2OC)c(C#N)c1C	i	7	-2	-11	-26	-1.9	3	3.7	1	-0.2

# Four compounds from above, arranged by heavy-atom count, rising.
molecule	FGF22 binding	Ecoli rRNA inh OD600	Calb FLC	ALR inh	T cruzi repl	RanGTP-Impb inh	Ecoli rRNA inh	Ecoli rRNA inh RFP	Beta apoptosis	AF4-AF9 inh
Cc1cccc(-c2cc3nc(C)cc(NCCCn4ccnc4)n3n2)c1	nt	nt	6	-23	29	-2.0	nt	nt	5	nt
CCN(CC)C(=O)c1sc(NC(=O)c2c(OC)cccc2OC)c(C#N)c1C	i	7	-2	-11	-26	-1.9	3	3.7	1	-0.2
CCn1c(SCC(=O)N2CCN(c3ccccc3F)CC2)nnc1-c1ccoc1C	nt	nt	12	5	-8	-4.0	nt	nt	6	nt
Cc1ccc2nc(N3C(=O)C(O)=C(C(=O)c4ccc(C)o4)C3c3cccc(O)c3)sc2c1 (stereo not drawn)	i	-45	65	nt	-16	?	-34	11	4	-0.6

# The results go on.
molecule	FGF22 binding	Ecoli rRNA inh OD600	Calb FLC	ALR inh	T cruzi repl	RanGTP-Impb inh	Ecoli rRNA inh	Ecoli rRNA inh RFP	Beta apoptosis	AF4-AF9 inh
O=C(COC(=O)c1ccc(S(=O)(=O)N2CCOCC2)cc1)NCc1ccccc1	i	4	nt	-1	nt	nt	1	-1.8	2	-1.0
CC(C)C(=O)N1C2CCC1CC(O)(c1ccc(F)cc1)C2 (stereo not drawn)	nt	nt	-3	-8	-4	0.0	nt	nt	-11	nt
C=C(C)CNC(=S)N/N=C1\CCCCc2ccccc21	i	-52	93*	-20	16	-1.9	-41	-0.5	3	0.2
Nc1nc(=S)[nH]c2c1C1(CCCCC1)Cc1ccccc1-2	i	-4	16	7	-1	-0.5	5	1.7	-1	0.4
CC1(C)Cc2nc(NCCN3CCOCC3)c(C#N)cc2CO1	nt	nt	7	nt	-2	1.4	nt	nt	5	nt
CC(C)Cc1nnc(NC(=O)CSc2nc(N)cc(=O)[nH]2)s1	nt	nt	-4	16	-14	-1.4	nt	nt	-4	nt
COc1cccc(CNC(=O)c2cccnc2Sc2ccc(C)cc2C)c1	i	-18*	62	-17	-15	-2.6	-31*	-2.9*	1	-0.7
COc1cccc(-n2cnc3scc(-c4cccs4)c3c2=O)c1	nt	nt	0	5	18	-0.7	nt	nt	0	nt
CC(=O)c1ccc(NC(=O)c2sc3nc(N4CCOCC4)c4c(c3c2N)CCCC4)cc1	nt	-9	39	0	8	-3.6	-4	1.2	7	2.1
O=C(CSc1nnc(-c2ccco2)n1Cc1ccco1)N1CCOCC1	nt	nt	2	-5	-10	?	nt	nt	2	nt
CCCS(=O)(=O)N1CCC(C(=O)NC2CCCCC2C)CC1 (stereo not drawn)	nt	nt	-5	-8	-4	1.3	nt	nt	2	nt
COc1cc(C(=O)CCN2CCC(c3ccccc3)C2)cc(OC)c1OC (stereo not drawn)	i	5	2	98*	-15	1.3	4	3.4	-18	-1.7
Cc1cc(-c2n[nH]c(=S)n2CC(C)C)cs1	i	-9	-8	44	4	-2.2	-17	3.2	2	3.2
COc1ccc(NC(=O)CCCn2c(=O)c3sccc3n(Cc3ccc(C)cc3)c2=O)cc1	nt	nt	8	0	-7	3.5	nt	nt	7	nt
O=C(Nc1ccc2[nH]c(=S)sc2c1)Nc1ccccc1F	i	-13	2	nt	-17	4.4	-7	13	4	-2.8
CCc1noc(C)c1C(=O)N1CCC(CCC(=O)Nc2cccc(C)c2)CC1	i	13	-4	-6	7	5.8	6	-1.6	-3	-0.6
CCc1ccnc(NS(=O)(=O)c2ccc3c(c2)OCCO3)c1	i	5	6	0	-7	5.9	3	0.2	-5	0.7
CN(C)S(=O)(=O)c1cc(NC(=O)CSc2cccc[n+]2[O-])ccc1Cl	i	nt	nt	-11	nt	nt	nt	nt	5	-0.4
CCCCCC(=O)NC(=S)NNC(=O)c1ccc([N+](=O)[O-])cc1	i	nt	19	0	0	-0.6	nt	nt	1	1.3
COc1cccc(C(=O)NNC(=O)CCN2CCN(c3ccccc3)CC2)c1	i	11	nt	86*	nt	nt	12	4.3	-3	-1.5
CCNc1nc(Oc2c(Cl)cccc2Cl)cc(C(F)(F)F)n1	nt	nt	-6	0	-4	0.4	nt	nt	4	nt
O=C(C(Cl)Cl)N1CCN(Cc2ccccc2)CC1	i	nt	5	-12	3	5.0	nt	nt	-10	5.4
CCCC(C)C(=O)Nc1ccc(F)c(Cl)c1 (stereo not drawn)	i	5	-43	-3	4	-3.1	-12	-4.9	-2	-2.8
CN1CCN(CCC(=O)Nc2cccc(F)c2)CC1	nt	nt	5	-2	1	1.1	nt	nt	nt	nt
CCOC(=O)C1=C(C)NC(=O)NC1c1ccsc1 (stereo not drawn)	nt	7	11	-6	-19	5.5	0	-3.4	-3	nt
CSCCC(NC(=O)c1ccc(Cl)c([N+](=O)[O-])c1)C(=O)N1CCN(C/C=C/c2ccccc2)CC1 (stereo not drawn)	i	-1	-7	2	-13	?	-1	-0.7	2	-0.3
Cc1ccc2c(c1)C(O)(CC(=O)c1ccc3c(c1)OCO3)C(=O)N2 (stereo not drawn)	nt	nt	-4	-9	-4	-1.1	nt	nt	-6	nt
Cc1ccc(C(=O)NC(=S)NNS(=O)(=O)c2ccc(C)cc2)cc1	nt	nt	-2	97*	-12	-2.0	nt	nt	-6	nt
NC(=O)C1CCN(C(=O)CNC(=O)c2ccccc2)CC1	i	12	-10	-5	0	1.7	5	4.7	-2	-2.1
CCOC(=O)C1=C(COC(=O)CCOc2ccc(OCC)cc2)NC(=O)NC1C (stereo not drawn)	i	-1	nt	-2	nt	nt	-6	-0.7	-2	2.3
COC(=O)c1cc(-c2ccc(Br)cc2)n[nH]1	nt	nt	-5	-8	-14	-0.8	nt	nt	-1	nt
Cc1ccc(NC(=O)Nc2nnc(Cc3ccc([N+](=O)[O-])cc3)s2)cc1	i	11	-7	0	13	-3.5	16	1.7	5	1.6
CNC(=O)/C(C#N)=C/c1ccc(-c2ccccc2[N+](=O)[O-])o1	nt	2	12	-2	-4	-0.7	14	7.6	3	0.2
O=C(O)c1cccc(NC(=S)NCc2ccccc2)c1	i	2	11	nt	-31	-3.2	11	-0.2	-3	-3.0

# Some of the compounds tested. The share of hits here may be higher or lower than overall.
